Hsc70 ATP site: small molecules displacing fluorescent ligand from Hsc70 – biochemical, fluorescence polarization, primary screen (AID 568); Hsc70 fluorescence polarization, probe displacement; higher % means a stronger effect; strong numbers were not always called active; one-dose displacement, % at 20 µM; IC50 in µM for titrated hits; 83,000 tested, under 10 active;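 active means displacement above 50% without optical interference and an IC50 on retest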;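 further: ATPase domain with a fluorescein-tagged ATP probe; 0% = vehicle and 100% = excess ADP; read after one hour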
WNV protease inh: inhibitors of West Nile virus NS2B-NS3 protease; actives 0.18% (n = 65,000); P06935; AID 577; z-score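 (tested at a level between 10 and 100 µM)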; WNV NS2B-NS3 protease, fluorogenic substrate Ex360/Em465; hits give low values;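 active means z-score at -3 or under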;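 further: score is relative to mean and spread of the compound wells of a plate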
Target sequence (P06935 1371-1501 limits assumed): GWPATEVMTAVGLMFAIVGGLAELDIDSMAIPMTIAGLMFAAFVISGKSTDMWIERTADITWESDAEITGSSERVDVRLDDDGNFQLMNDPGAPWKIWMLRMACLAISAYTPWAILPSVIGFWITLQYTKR
Target sequence (P06935 1502-1679 limits assumed): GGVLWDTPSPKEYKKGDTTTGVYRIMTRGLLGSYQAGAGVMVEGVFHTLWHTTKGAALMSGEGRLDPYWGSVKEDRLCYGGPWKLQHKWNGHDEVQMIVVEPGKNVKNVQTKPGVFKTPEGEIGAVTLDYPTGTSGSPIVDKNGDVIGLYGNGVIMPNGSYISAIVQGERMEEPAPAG
MT1-MMP reporter: inhibitors of MT1-MMP promoter transcription, cell-based, luciferase reporter, luminescence (AID 618); MT1-MMP promoter luciferase reporter cells, luminescence; calls from a first round at 10 µM; hits with a dose series show EC50 in µM; actives 0.62% (n = 87,000);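 active means over half of the reporter light lost at 10 µM or EC50 under 50 µM; inactive means the rest and hits that failed the dose series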;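 further: actives suppress MT1-MMP promoter-driven transcription so potencies describe inhibitors; HT1080 fibrosarcoma cells; overnight exposure; toxic or luciferase-blocking compounds were not removed from the actives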
The depositor's hits bear a star; i = inactive; nt = not tested or not shown. Not all compounds are listed. The share of hits here may be higher or lower than overall.

Values run as follows: WNV protease inh	MT1-MMP reporter	Hsc70 ATP site
Cc1cc2cc(CNC(=O)Nc3ccccc3)ccc2n1C
 : 0.85	i	-2.0%
CCOc1cc(C2C(C(=O)OCC(C)C)=C(C)N=C3SCCC(=O)N32)ccc1OC(C)=O (stereo unspecified)
 : -0.14	i	4.1%
Cc1ccc(N(CC(=O)NC2CCCC2)C(=O)CCCC(=O)Nc2ccccn2)cc1C
 : -0.4	i	-1.6%
CCOc1ccc(CCNC(=O)c2nnc(Cc3ccc(F)cc3)o2)cc1OCC
 : 0.19	i	-2.7%
CCOC(=O)c1[nH]c2ccccc2c1NC(=O)CCN1CCN(C(=O)OCC)CC1
 : -0.31	i	6.3%
COC(=O)Nc1nnc(CCc2ccccc2)s1
 : 0.72	i	-2.8%
Cc1ccc(C)c(N2CCN(C(=O)CN(C)S(=O)(=O)c3cnc[nH]3)CC2)c1
 : 0.28	i	10%
Cc1ccc(C2CC(=O)N(c3ccc(F)cc3)C3=C2C(=O)CCC3)cc1 (stereo unspecified)
 : nt	i	5.7%
COC(=O)c1ccc(NC(=O)CSCc2ccccc2)cc1
 : nt	i	-1.3%
Cc1cc(C)c(C(N)=O)c(NCCc2ccccc2)n1
 : -0.79	i	-2.3%
CCCCCCn1c(N2CCC(C(N)=O)CC2)nc2c1c(=O)n(C)c(=O)n2C
 : -0.94	i	-4.5%
COc1ccc(S(=O)(=O)N(CC(=O)N2CCOCC2)Cc2ccccc2)cc1C
 : nt	i	-1.4%
CCn1c(SCc2nc(-c3ccc(Cl)cc3)no2)nnc1-c1ccco1
 : nt	i	2.3%
COc1ccc(C2CC(c3cccc(Cl)c3)n3nc(N)nc3N2)cc1 (stereo unspecified)
 : -1.3	i	-4.7%
COC(=O)CN(c1nc(C)c(Br)c(OC)n1)S(=O)(=O)c1ccc(C)cc1
 : 0.16	i	-6.4%
Cn1c(=O)c2c(nc(CN3CCN(C(=O)c4ccco4)CC3)n2CCc2ccccc2)n(C)c1=O
 : 0.35	i	-3.9%
COC(=O)c1ccccc1NC(=O)c1sc(=S)n(C)c1N
 : 0.06	i	1.8%
O=C(NCc1ccccn1)Nc1ccc2c(c1)OCO2
 : -0.3	i	2.0%
COc1ccc(CNS(=O)(=O)c2ccc(S(=O)(=O)N3CCCCC3)cc2)cc1
 : -0.41	i	1.4%
Cc1cc2ccccn2c1C(=O)c1ccncc1
 : -0.06	i	-5.9%
Cc1ccc(C(c2sc3nc(C)nn3c2O)N2CCN(c3ccccc3)CC2)cc1 (stereo unspecified)
 : 0.52	i	9.0%
Cc1ccccc1N1OC2C(=O)N(c3ccc(F)cc3)C(=O)C2C1c1ccccn1 (stereo unspecified)
 : -0.85	i	-8.7%
CC1CC2=C(CC1/C=N/NC(N)=S)C(C)(C)CCC2 (stereo unspecified)
 : nt	i	-2.2%
O=C(Nc1ccc(Cl)c(Cl)c1)N1CCSCC1
 : nt	i	-4.7%
CCc1nnc(SCC(=O)NC2CCCCC2)nc1CC
 : 0.35	i	1.6%
Cc1c(C(=O)NC(C)c2ccncc2)oc2ccccc12 (stereo unspecified)
 : 0.18	i	4.0%
CCn1nnnc1-c1ccc(OC)c(S(=O)(=O)Nc2ccc(OC)cc2)c1
 : -1.1	i	1.8%
O=C(CCN1C(=O)c2ccccc2C1=O)N1CCCCCC1
 : 1.6	i	-0.7%
Cc1c(NC(=O)c2ccc(N3C(=O)C4C5C=CC(C5)C4C3=O)cc2)c(=O)n(-c2ccccc2)n1C (stereo unspecified)
 : 0.23	i	11%
CCSCCOC(=O)C1=C(C)NC(=O)NC1c1ccc2c(c1)OCO2 (stereo unspecified)
 : 0.01	i	1.6%
O=C(CSc1nnc(Cn2c(=O)sc3ccccc32)n1-c1ccccc1)N1CCCC1
 : -0.52	i	3.8%
COC(=O)C(C)N1C(=O)S/C(=C\c2cc(C)n(-c3ccccn3)c2C)C1=O (stereo unspecified)
 : nt	i	-0.3%
COc1ccc(-n2c(SCC(=O)N3CCCC(C)C3)nnc2-c2cccnc2)cc1 (stereo unspecified)
 : 0.22	i	-1.0%
Nc1c(C(=O)Nc2ccc3c(c2)OCCO3)nnn1CCc1ccccc1
 : 0.62	i	2.9%
CCn1c(C)c(C(C)=O)c(N2CCCC2)nc1=S
 : 0.03	i	-0.5%
Cc1cc(NC(=O)c2cccc3ccccc23)cc(C)c1OCC(=O)N1CCOCC1
 : nt	i	4.5%
CCN(CCO)Cc1cc(=O)oc2c(C)c(C)ccc12
 : 1.3	i	-4.2%
CC(C)(C)C(C(Oc1ccc(Cl)cc1)n1cncn1)n1nnnc1C(c1cccc(Cl)c1)N1CCCCC1 (stereo unspecified)
 : nt	i	-1.8%
COC(=O)c1ccc(-n2c(C)cc(/C=N/n3cnnc3)c2C)cc1
 : -0.56	i	-1.8%
O=C1CSC2=NCN(c3ccc4c(c3)OCO4)CN12
 : 0.21	i	2.0%
CCOC(=O)C1=C(CN2c3ccccc3CC2C)NC(=O)NC1c1ccccc1 (stereo unspecified)
 : nt	i	4.6%
CCc1ccc(NC(=O)CC2C(=O)Nc3c2c(=O)n(C)c(=O)n3C)cc1 (stereo unspecified)
 : nt	i	4.6%
COc1cc(S(=O)(=O)N2CCOCC2)ccc1F
 : 0.13	i	3.0%
Cc1cc(=O)[nH]c2c(C)c(Cl)ccc12
 : -1.2	i	-0.1%
CCCN(CCC)C(=O)CSc1nc2ccccc2c(=O)n1C1CCCC1
 : 1.6	i	-1.4%
COc1ccc(OCc2nn3c(-c4cccc(OC)c4)nnc3s2)cc1
 : 1.5	i	-0.5%
COc1cc(CN2CCN(CCOCCO)CC2)cc(OC)c1OC
 : -0.55	i	3.2%
O=C1c2ccccc2C(O)N1Cc1ccc2c(c1)OCO2 (stereo unspecified)
 : -0.98	i	-1.3%
CC(C)NC(=O)c1ccccc1NC(=O)CCc1ccccc1
 : nt	i	2.3%
CCc1ccc(NC(=O)c2cc(CC(C)C)on2)cc1
 : 0.49	i	3.9%

More results
Values run as follows: WNV protease inh	MT1-MMP reporter	Hsc70 ATP site
Cn1c(C(F)(F)F)nc2c(=O)oc3ccccc3c21
 : 0.23	i	2.9%
CCN1C(=O)c2ccccc2S(=O)c2ccc(C(=O)NCc3ccccn3)cc21 (stereo unspecified)
 : -0.27	i	-0.3%
C=C(C)Cn1c(C2CC(=O)N(c3ccccc3F)C2)nc2ccccc21 (stereo unspecified)
 : -0.44	i	-1.5%
Cc1nc2sc(C(c3ccco3)N3CCN(c4ccccc4F)CC3)c(O)n2n1 (stereo unspecified)
 : -0.44	i	1.2%
CCCCOc1ccc(C(=O)C(CN2CCOCC2)c2ccccc2)cc1 (stereo unspecified)
 : nt	13µM*	1.2%
Cc1ccc(NC(=O)CN(c2ccccc2)S(=O)(=O)N(C)C)cc1C
 : nt	i	-0.6%
CC(C)(C)C1CCC2(CC1)NC(CO)(CO)CO2 (stereo unspecified)
 : 0.38	i	-7.8%
Cn1c(COc2ccc3ccccc3c2)nnc1SCC(=O)OC1CCCCC1
 : nt	i	-1.8%
CCOC(=O)c1c(NC(N)=O)sc(C)c1C
 : 1.7	i	-2.4%
Cc1nnc2ccc(N3CCN(C(=O)c4ccccc4)CC3)nn12
 : 1	i	-3.9%
Cc1noc(C)c1CSc1nc2ccccc2s1
 : -0.7	i	3.2%
O=C(NC1CCCCC1)Nn1c(-c2ccccc2)nc2ccccc2c1=O
 : -0.69	i	-8.3%
CCn1c(SCC(=O)NCCc2ccccc2)nnc1-c1ccco1
 : -0.12	i	3.4%
CCc1ccccc1N(CC)C(=O)CCc1nc(-c2ccc(C)cc2)no1
 : 1.7	i	2.6%
CN1CCN(S(=O)(=O)c2ccc(N3CCN(S(=O)(=O)/C=C/c4ccccc4)CC3)nc2)CC1
 : -0.44	i	-5.3%
CCc1ccccc1Nc1nc(N)nc(CSCC(=O)c2cc(C)n(C)c2C)n1
 : -0.64	i	-5.4%
c1cnc(NCCNc2ncccn2)nc1
 : -0.15	i	-4.6%
COc1ccc2c(c1)c(C(O)CN1CCN(Cc3ccc4c(c3)OCO4)CC1)c(C)n2C (stereo unspecified)
 : 0.06	i	7.1%
COC(=O)c1cccc(NC(=O)c2cc3sccc3n2C)c1
 : 1.4	i	0.2%
CCOC(=O)c1cc2occc2n1CC(=O)NC1CCC(C)CC1 (stereo unspecified)
 : 1.3	i	-5.6%
CC1CCN(S(=O)(=O)c2ccc(NC(=O)CN3CCOCC3)cc2)CC1
 : nt	i	-1.3%
CC(=O)Nc1ccc(-n2nnnc2SCC(=O)N2CCN(C(=O)c3ccco3)CC2)cc1
 : nt	i	3.5%
O=C(O)CNC(=O)c1ccc(OC(F)F)cc1
 : -1.1	i	1.8%
c1ccc(-c2csc(N3CCCCCC3)n2)cc1
 : -0.43	i	0.3%
Cc1ccc2nc(NC(=O)C3CCCN(S(=O)(=O)c4cnc[nH]4)C3)sc2c1 (stereo unspecified)
 : 0.76	i	4.7%
Nc1c(S(=O)(=O)c2cccs2)c2nc3ccccc3nc2n1Cc1ccccc1
 : nt	i	-0.4%
CCCn1c(SCC(=O)Nc2ccccc2N2CCCCC2)nc2c1c(=O)n(C)c(=O)n2C
 : -0.8	i	-1.2%
COc1cccc(-c2nnc(SCC(=O)N3CCCc4ccccc43)o2)c1
 : -0.95	i	-5.3%
Cn1c(-c2ccccc2)cnc1SCC(=O)NCc1ccco1
 : 0.6	i	5.8%
CN(C)c1ccc(NC(=O)CSc2nc3ccccc3c(=O)n2C2CCCCC2)cc1
 : -1.3	i	-0.7%

Shown with each value named: 4 of the compounds above
CC1CCN(S(=O)(=O)c2ccc(NC(=O)CN3CCOCC3)cc2)CC1
- WNV protease inh: nt
- MT1-MMP reporter: i
- Hsc70 ATP site: -1.3%

CC(=O)Nc1ccc(-n2nnnc2SCC(=O)N2CCN(C(=O)c3ccco3)CC2)cc1
- WNV protease inh: nt
- MT1-MMP reporter: i
- Hsc70 ATP site: 3.5%

O=C(O)CNC(=O)c1ccc(OC(F)F)cc1
- WNV protease inh: -1.1
- MT1-MMP reporter: i
- Hsc70 ATP site: 1.8%

c1ccc(-c2csc(N3CCCCCC3)n2)cc1
- WNV protease inh: -0.43
- MT1-MMP reporter: i
- Hsc70 ATP site: 0.3%

Following part:
Values run as follows: WNV protease inh	MT1-MMP reporter	Hsc70 ATP site
O=C(NCCC1=CCCCC1)C1CCN(Cc2cnn(-c3ccccc3)c2-n2cccc2)CC1
 : -1.2	i	3.4%
CN(C(=O)c1ccno1)c1nnc(-c2cccnc2)s1
 : -0.3	i	2.9%
COc1cc2c(cc1NC(=O)c1cncc(Br)c1)oc1ccccc12
 : -0.14	i	-7.1%
CS(=O)(=O)N(CCc1ccccc1)CC(=O)N1CCN(c2ccccc2F)CC1
 : 0.06	i	-2.6%
CCOCC(O)CS(=O)Cc1ccccc1 (stereo unspecified)
 : -0.95	i	2.2%
O=S1(=O)C=C(SCCN2CCCC2)c2ccccc21
 : nt	i	-2.4%
CCCN1CCN(CCCNC(=O)C2CCN(c3nnc(-n4cccc4)s3)CC2)CC1
 : -1	i	-2.4%
CCc1nc2sc(C)c(C)c2c(=O)n1CCO
 : -0.33	i	-0.3%
COc1ccc(CC(C(=O)Nc2cc(C)ccc2C)/C(N)=N/O)cc1 (stereo unspecified)
 : -0.6	i	3.1%
CSc1nnc(Cc2sc(-c3ccccc3)nc2-c2ccccc2)o1
 : nt	i	2.6%
CN(C)c1ccc(CNCCC2CCOC(C)(C)C2)cc1 (stereo unspecified)
 : nt	i	-4.0%
C=CCNc1nc(-c2ccc(OC)cc2OC)cs1
 : 0.2	i	1.2%
COc1ccc(CCN2C(=NC(=O)CCC(=O)O)SC3CS(=O)(=O)CC32)cc1 (stereo unspecified)
 : nt	i	-3.0%
C=CCN1C(=O)N(/C=C/C)c2cccc3cccc1c23
 : -1.3	i	-0.5%
Cc1ccc(S(=O)(=O)Nc2ccc3nc(-c4cccn4C)[nH]c3c2)cc1
 : -0.41	i	7.2%
C=CCNC(=S)N/N=C(\C)c1ccccn1
 : nt	i	-3.2%
Cc1cccc(NC(=O)c2ccccn2)c1C
 : 0.38	i	1.4%
O=C(O)c1ccc(OCCn2ccnc2)cc1
 : 0.67	i	-0.7%
COc1ccc2c(c1)c(=O)oc1cc(OCC(=O)NC3CCCCC3)ccc12
 : nt	i	3.7%
Cc1sc2nc(SCC(=O)N(C)Cc3ccccc3)n(-c3ccccc3)c(=O)c2c1C
 : nt	i	-12%
Cc1nn(CC(=O)Nc2ccc3c(c2)nc(CN2CCCC2)n3C)c(=O)c2ccccc12
 : -1.6	i	-4.8%
CCCc1cc(C(=O)N(C2CCCCC2)C2CCCCC2)no1
 : 2.1	i	0.7%
O=C(NCCc1ccc(Cl)cc1)c1cccnc1
 : nt	i	4.6%
O=C(NCc1ccco1)c1cccs1
 : -1.9	i	2.0%

Source: PubChem BioAssay
